Screens deposited in PubChem by several laboratories.
RecA intein inh: Mtb RecA intein splicing inhibitors, primary screen, biochemical, fluorescence, HTS. Protein RecA (Mycobacterium tuberculosis (strain ATCC 25618 / H37Rv)), P9WHJ3. cell-free RecA intein splicing. inhibition, %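 (about 9 µM by stock and volumes)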. 290,000 compounds, 0.75% hits; in the data active = inhibition above about 30%; inconclusive = no clear call, values can overlap the other calls;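 note: 0% = vehicle wells and 100% = reference inhibitor control wells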
Target sequence (P9WHJ3 whole entry, looked up): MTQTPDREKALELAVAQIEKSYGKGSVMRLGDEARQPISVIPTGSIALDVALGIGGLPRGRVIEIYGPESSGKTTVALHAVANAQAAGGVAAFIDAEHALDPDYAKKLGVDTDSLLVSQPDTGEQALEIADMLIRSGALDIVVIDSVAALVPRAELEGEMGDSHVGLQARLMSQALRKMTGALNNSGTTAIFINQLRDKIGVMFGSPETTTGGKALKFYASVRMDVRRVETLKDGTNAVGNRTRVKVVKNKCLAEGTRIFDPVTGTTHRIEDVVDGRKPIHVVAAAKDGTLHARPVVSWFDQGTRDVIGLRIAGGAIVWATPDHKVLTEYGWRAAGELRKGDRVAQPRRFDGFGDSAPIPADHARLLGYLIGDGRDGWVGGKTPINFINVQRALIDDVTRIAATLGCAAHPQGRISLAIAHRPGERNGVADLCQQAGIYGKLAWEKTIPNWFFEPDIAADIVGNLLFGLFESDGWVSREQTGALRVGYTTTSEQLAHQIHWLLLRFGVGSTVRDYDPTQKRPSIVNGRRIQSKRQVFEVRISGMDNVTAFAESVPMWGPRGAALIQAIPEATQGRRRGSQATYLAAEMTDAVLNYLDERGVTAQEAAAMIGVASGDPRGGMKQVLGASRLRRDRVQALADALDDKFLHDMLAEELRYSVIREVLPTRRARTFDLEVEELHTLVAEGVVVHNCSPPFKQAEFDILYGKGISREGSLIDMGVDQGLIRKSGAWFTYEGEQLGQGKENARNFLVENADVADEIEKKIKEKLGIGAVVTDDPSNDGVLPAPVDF
Arbovirus anti: antivirals against arbovirus infection, primary screen, cell-based, full library, 10K replicate subset | arbovirus infection cell-based antiviral screen | inhibition, % at 10 µM | 200,000 compounds, 0.37% hits;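 active = inhibition from about 30%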;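 note: bluetongue infection of BSR cells; cell survival read as ATP light after 72 h; 0% = infected wells without compound and 100% = uninfected wells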
Mtb H37Rv: M. tuberculosis H37Rv growth inhibitors, H37Rv strain (AID 1626); M. tuberculosis H37Rv growth inhibition; higher % means a stronger effect; inhibition, % at 10 µM; hits with a dose series show IC50 in µM; 220,000 compounds, 0.95% hits;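 active = confirmed in a dose series; inconclusive = inhibition above 80% but not taken into the dose series; inactive = below 80% or under 30% at every dose of the series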;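 note: bacteria incubated seven days before Alamar blue readout; 0% = bacteria only wells and 100% = bacteria with antibiotic wells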
Mtb betalactam: beta-lactam sensitization of Mtb H37Rv, H37Rv; inhibition, % at 25 µM; M. tuberculosis H37Rv growth with meropenem, percent inhibition; hits of this screen are not shown here; 330,000 compounds, 0.27% hits;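 active = about 74% or more and at least 40 points above the plate without the antibiotic, then above 30% in a dose series; inconclusive = first-round hits that could not be retested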;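 note: growth measured after seven days incubation then overnight dye step; 0% = bacteria only wells and 100% = bacteria with antibiotic; twin plates without the antibiotic show which effects depend on it; some results filed as inactive read as strong as hits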
YopH PTP inh: YopH tyrosine phosphatase inhibitors, primary screen, biochemical, fluorescence Ex485/Em525; AID 898, 2007; inhibition, %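 (about 10 µM by stock and volumes)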; 140,000 compounds, 0.16% hits;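 active = inhibition of 50% or more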;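 note: controls were vehicle for no effect and minimum signal wells for full effect; inactives centre near -20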
Arbovirus anti repeat: also measured in Arbovirus anti; calls as there; inhibition, %; measured here: 10K subset replicate screen; many hits read low in the repeat;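 first of two repeat runs on a subset; 0% = infected and 100% = uninfected wells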
Starred values were filed as active, the others as inactive; ? = inconclusive; . = not tested or not shown. Some of the compounds tested; rates above refer to the full screens.

SMILES	RecA intein inh	Arbovirus anti	Mtb H37Rv	Mtb betalactam	YopH PTP inh	others
COc1cc2[nH]cc(C(=O)NCCc3ccccc3)c(=O)c2cc1OC	-1.0	-7	-11%	65	2
COc1ccccc1NC(=S)NC(=O)C(C)C	0.1	12	2%	98	-9
CCOC(=O)N1CCC(NC(=O)C2=CCN(S(=O)(=O)c3ccc(F)cc3)CC2)CC1	0.3	.	-4%	-2	.
COc1ccc2c(c1)nc(CN1CCN(CCO)CC1)n2C	0.3	.	.	1	.
CC(NC(=O)C(C)(C)C)C(c1cccs1)N1CCOCC1 (centres undefined)	1.3	.	-4%	-10	.
COc1ccccc1NC(=O)CCCc1nc(-c2ccc(OC)c(OC)c2)no1	-1.0	-6	3%	-2	.
CC(=O)Nc1cccc(NC(=O)c2cc(Cl)ccc2Cl)c1	-0.4	7	9%	2	.
CCC(=O)Nc1nnc(SCC(=O)NC2CCCC2)s1	0.5	.	.	-2	.
CN(C)S(=O)(=O)c1ccc2c(c1)C(=NO)c1cc(S(=O)(=O)N(C)C)ccc1-2	-1.4	.	.	2	.
CCOC(=O)c1ccccc1NC(=O)CSc1ccc(-c2cccnc2)nn1	1.6	20	2%	-6	.
O=C(c1cnsn1)N1CCN(c2ccccc2)CC1	.	11	5%	-7	38
Cc1ccc(-n2c(C)nc3c(cnn3-c3ccc(C)c(C)c3)c2=O)cc1C	1.5	10	87%	0	-20
CC(OC(=O)C1=COCCO1)C(=O)Nc1cc(S(=O)(=O)N2CCCCC2)ccc1Cl (centres undefined)	0.2	-2	44%	1	.
CCc1ccccc1NC(=O)C1CCN(S(=O)(=O)c2ccc3c(c2)N(C(C)=O)CCO3)CC1	-6.2	.	.	2	.
COc1ccc([N+](=O)[O-])cc1NC(=O)c1ccc(N(Cc2ccccc2C)S(C)(=O)=O)cc1	4.9	-6	5%	-3	-17
Cc1ccc(C2C(C#N)=C(N)SC(N)=C2C#N)cc1	.	0	.	.	-27
COC(=O)c1[nH]c2cc(C)ccc2c1NC(=O)CN1CCc2cc(OC)c(OC)cc2C1	-1.1	15	9%	-10	-36
COc1ccc(-c2nc(CN3CCC(C(=O)N4CCOCC4)CC3)c(C)o2)cc1OC	-1.1	.	.	-1	.
O=C(NCCCn1ccnc1)/C(=C\c1ccccc1F)NC(=O)c1ccccc1	-1.2	.	.	-2	.
NC(=O)Cn1nc2sc3ccccc3n2c(=O)c1=O	2.1	.	-7%	5	.

Gathered by group, the entries above containing an aryl thioether with sulfur outside any ring (2)
SMILES	RecA intein inh	Arbovirus anti	Mtb H37Rv	Mtb betalactam	YopH PTP inh	others
CCC(=O)Nc1nnc(SCC(=O)NC2CCCC2)s1	0.5	.	.	-2	.
CCOC(=O)c1ccccc1NC(=O)CSc1ccc(-c2cccnc2)nn1	1.6	20	2%	-6	.

(continued)
SMILES	RecA intein inh	Arbovirus anti	Mtb H37Rv	Mtb betalactam	YopH PTP inh	others
COc1ccc(N=C2S/C(=C\c3cc(C)n(C)c3C)C(=O)N2C)cc1	1.3	-15	2%	-2	-3
O=C(O)C1=C(OCc2ccccc2)C(=O)NCC1	0.8	2	1%	-3	.
N#CCC(=O)N/N=C/c1cn(Cc2ccc(Cl)cc2Cl)c2ccccc12	2.7	.	11%	-2	.
C=CCSc1nnc2nc3c(nn12)c1cc(C)ccc1n3CC=C	5.1	-4	6%	9	-12	Arbovirus anti repeat=-6
Cc1cc(C)cc(NS(=O)(=O)c2ccc3[nH]cc(C(=O)NCc4ccco4)c(=O)c3c2)c1	0.0	-22	3%	-1	-18
COc1cccc(NC(=O)Cn2c(-c3cncs3)nc3ccccc32)c1	3.9	-4	7%	-7	-20
COc1ccc(-c2cn3c(C)c(C(=O)N4CCN(c5ccccc5F)CC4)sc3n2)cc1	-3.7	-22	.	55	.	Arbovirus anti repeat=-2
CS(=O)(=O)c1ccc(C(=O)Nc2ccccc2Cl)cc1	-2.8	.	-9%	-3	.
C/C(=N\OCC(=O)Nc1ccccc1Br)c1cccs1	-1.3	5	4%	3	.
Cc1ccc(Nc2nc(CSc3nnnn3C)cs2)cc1	0.2	0	-9%	-3	13
O=C(NNC(=O)c1ccco1)c1cccc([N+](=O)[O-])c1	1.1	3	-1%	0	-11
CC1c2cc3c(cc2CCN1C(=O)c1ccc(Cl)cc1)OCCCO3 (centres undefined)	4.9	.	.	1	.
N/C(=N\N=C\c1ccc(O)c(O)c1)c1nonc1N	-4.2	.	-5%	2	.
O=C(CNCc1ccco1)Nc1cc(S(=O)(=O)N2CCOCC2)ccc1N1CCCC1	6.4	2	7%	16	.
O=C(CSc1ncnc2[nH]ncc12)Nc1cccc(Oc2ccccc2)c1	3.3	-2	6%	-5	.
CCN(CC)C(=O)CSc1ncnc2c1nnn2-c1ccc(F)cc1	6.8	4	-6%	6	-27
COc1ccc(NC(=O)CCc2nc(-c3ccccc3F)no2)cc1	14	1	>100µM*	84	21
O=C(Nc1ccncc1)c1ccc([N+](=O)[O-])cc1Cl	-2.5	.	.	2	.
COc1ccc(N(CC(=O)Nc2cccnc2)S(=O)(=O)c2ccccc2)cc1OC	-0.8	.	.	-1	.
Cc1ccc(C(=O)NN(CCC#N)C2=NS(=O)(=O)c3ccccc32)cc1	-0.9	1	-5%	-5	.
NC(=S)NNC(=O)C12CC3CC(CC(C3)C1)C2	-0.3	-2	9%	0	-20
COC(=O)C1=C(C)N(C)C(=O)NC1c1cc2c(cc1[N+](=O)[O-])OCO2 (centres undefined)	-6.7	-3	4%	2	.
CN(CC(=O)Nc1nccs1)S(=O)(=O)c1ccc(F)cc1	0.0	7	-4%	-6	12
O=C(NC(Cc1c[nH]c2ccccc12)c1nnc2n1CCCCC2)c1ccccc1Cl (centres undefined)	-0.9	9	-6%	-3	-36
CSc1nnc(NC(=O)c2nc(S(=O)(=O)Cc3ccccc3F)ncc2Cl)s1	76*	.	.	12	.
Cc1ccc(OCCC(=O)OCC(=O)Nc2ccc3c(c2)OCCO3)cc1	-0.8	.	.	4	.
CCN(CCNCC(O)COc1ccccc1C(C)C)c1cccc(C)c1 (centres undefined)	5.9	.	.	99	.
CC1CCc2sc(C(=O)OCC(=O)NCc3ccccc3)cc2C1 (centres undefined)	-0.4	0	14%	13	-50
Cc1nsc2c1ccc1ccccc12	.	1	2%	-1	.
Cc1ccc(C(CNC(=O)Nc2cccc(C)c2)N2CCN(C)CC2)cc1 (centres undefined)	-1.1	.	.	7	.
O=c1c2ccccc2c2ccccc2c(=O)n1-c1ccccc1	9.6	13	-7%	42	.
CC(C)CC(=O)Nc1ccc(N2CCN(C(=O)c3cccs3)CC2)cc1	-1.6	.	.	-3	.
Cc1ccc(OCc2nc(C#N)c(N3CCCC3)o2)cc1	1.0	-4	3%	-3	-33
CCNc1ccc(S(=O)(=O)N(C)C)cc1NCC(=O)Nc1ccc(F)c(Cl)c1	5.0	-1	1%	3	-8
CCCC(=O)OCC(=O)Nc1ccc2[nH]c(=O)[nH]c2c1	-1.9	-2	-3%	-8	.
O=C1NC(=Nc2ccccc2)S/C1=C\c1ccccc1	3.4	.	.	4	.
COc1ccc(C(=O)NNc2ccccc2)cc1OC	-5.5	-31	?	?	-21
CC(C)n1cc(CN2CCC(n3nccc3NC(=O)C3CCCC3)CC2)cn1	-5.4	.	.	-2	.
Cc1ccc(NC(=O)c2cc(N3C(=O)C4CC=CCC4C3=O)ccc2N2CCCCC2)cc1 (centres undefined)	0.7	-8	2%	1	-30
COc1ccc(Cl)cc1NC(=S)NN1CCOCC1	-1.9	-3	6%	-2	.
Cc1ccc(CN(C(=O)c2cc3ccccc3oc2=O)C2CCS(=O)(=O)C2)cc1 (centres undefined)	-0.4	1	-7%	-9	-12
COc1ccccc1NC(=O)CN1CCN(Cc2ccccc2)CC1	-1.8	-2	-7%	-19	-24
CC(=O)Nc1ccc(S(=O)(=O)Nc2nc3ccccc3nc2Sc2nncn2C)cc1	-13	2	-12%	-2	-16	Arbovirus anti repeat=1
Cc1ccc(NC(=O)CN2CCc3ccccc3C2)cc1S(=O)(=O)N1CCOCC1	2.5	9	4%	-1	-23
COc1ccccc1C(=O)NC(=S)Nc1cc(C(=O)O)ccc1C	2.1	7	-4%	2	.
CCN(CC(=O)Nc1c(F)cccc1F)C(=O)CN1C(=O)NC2(CCCC2)C1=O	-1.1	.	.	-1	.
Cc1cc(=O)oc(C)c1C(=O)NNC(=O)C1(C)CC1Br (centres undefined)	0.2	.	-4%	2	.
CCOc1ccc(NC(=O)CS(=O)CC(=O)NC2CCCc3ccccc32)cc1 (centres undefined)	.	8	-14%	-11	5
CC1=NNC(=O)C1CCC(=O)N/N=C\c1cccc(Cl)c1 (centres undefined)	-2.3	0	-7%	-6	.
COc1cc2c(cc1OC)C(C)N(C(=O)CCNC(=O)c1ccccc1)CC2 (centres undefined)	-0.8	.	.	5	.

(further entries)
SMILES	RecA intein inh	Arbovirus anti	Mtb H37Rv	Mtb betalactam	YopH PTP inh	others
CSc1ccc(CN(C)C(=O)CSCC(=O)Nc2cc(C)on2)cc1	0.7	.	.	-6	.
c1ccc(C2c3c(ccc4ccccc34)Oc3ncn4nc(-c5ccco5)nc4c32)cc1 (centres undefined)	2.3	6	0%	7	-15
CCn1nc(C(=O)N[C@@H](CCSC)c2nc3ccccc3[nH]2)c2ccccc2c1=O	2.9	5	5%	-6	16
Cc1cccc(C(=O)NNC(=O)c2csc(N3CCOCC3)n2)c1C	-1.0	.	.	6	.
CCCCC(=O)NC(Nc1ccc(C)cn1)(C(=O)OCC)C(F)(F)F (centres undefined)	0.5	0	-1%	-5	-34
COc1ccc(C(c2nnnn2C2CCCCC2)N2CCN(c3ccccc3F)CC2)cc1 (centres undefined)	12	2	25%	19	-19
CCOC(=O)c1ccc(NC(=O)COc2ccc(S(=O)(=O)NC(C)CC)cc2)cc1 (centres undefined)	1.6	7	44%	42	6
O=C(O)C1C2C=CC(C2)C1C(=O)Nc1ccc(Cl)c(Cl)c1 (centres undefined)	1.1	.	.	1	.
COc1ccc(N(C(=O)c2ccco2)C(C(=O)NC2CCCC2)c2ccc(OC)c(OC)c2)cc1 (centres undefined)	-1.4	.	.	-12	.
O=C(Cn1nnc(-c2ccccc2F)n1)Nc1ccc(C(=O)N2CCOCC2)cc1	3.1	-3	2%	-4	-18
COc1ccccc1NC(=S)NNC(=O)c1nn(C)c(C)c1Cl	1.3	0	-7%	-3	-10
CCOC(=O)C1CCCN(C(=O)/C=C/c2ccc([N+](=O)[O-])cc2)C1 (centres undefined)	0.6	3	5%	4	-24
N#Cc1ccccc1Cn1cc(C(=O)c2ccco2)c2ccccc21	5.1	2	2%	1	-14
Cc1cc(C)cc(N(CC(=O)NC2CCCC2)C(=O)CNC(=O)c2cccs2)c1	-1.0	.	.	-5	.
COc1ccccc1/C=N/NC(=O)c1nnn(-c2nonc2N)c1-c1cccs1	-1.0	.	.	-3	.

Structures above with a Cl atom (13):
SMILES	RecA intein inh	Arbovirus anti	Mtb H37Rv	Mtb betalactam	YopH PTP inh	others
CC(=O)Nc1cccc(NC(=O)c2cc(Cl)ccc2Cl)c1	-0.4	7	9%	2	.
CC(OC(=O)C1=COCCO1)C(=O)Nc1cc(S(=O)(=O)N2CCCCC2)ccc1Cl (centres undefined)	0.2	-2	44%	1	.
N#CCC(=O)N/N=C/c1cn(Cc2ccc(Cl)cc2Cl)c2ccccc12	2.7	.	11%	-2	.
CS(=O)(=O)c1ccc(C(=O)Nc2ccccc2Cl)cc1	-2.8	.	-9%	-3	.
CC1c2cc3c(cc2CCN1C(=O)c1ccc(Cl)cc1)OCCCO3 (centres undefined)	4.9	.	.	1	.
O=C(Nc1ccncc1)c1ccc([N+](=O)[O-])cc1Cl	-2.5	.	.	2	.
O=C(NC(Cc1c[nH]c2ccccc12)c1nnc2n1CCCCC2)c1ccccc1Cl (centres undefined)	-0.9	9	-6%	-3	-36
CSc1nnc(NC(=O)c2nc(S(=O)(=O)Cc3ccccc3F)ncc2Cl)s1	76*	.	.	12	.
CCNc1ccc(S(=O)(=O)N(C)C)cc1NCC(=O)Nc1ccc(F)c(Cl)c1	5.0	-1	1%	3	-8
COc1ccc(Cl)cc1NC(=S)NN1CCOCC1	-1.9	-3	6%	-2	.
CC1=NNC(=O)C1CCC(=O)N/N=C\c1cccc(Cl)c1 (centres undefined)	-2.3	0	-7%	-6	.
O=C(O)C1C2C=CC(C2)C1C(=O)Nc1ccc(Cl)c(Cl)c1 (centres undefined)	1.1	.	.	1	.
COc1ccccc1NC(=S)NNC(=O)c1nn(C)c(C)c1Cl	1.3	0	-7%	-3	-10
